# ALR H2O2 inh – inhibitors of human ALR sulfhydryl oxidase, primary screen, biochemical, H2O2 detection, HRP-luminol luminescence, single point; purified ALR, DTT oxidation; inhibition, % (test concentration not listed); 290,000 tested, 3.8% active;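 active means mean and each replicate at 75% or more; inconclusive means only one of the two met; inactive means neither met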;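 further: stock transfer was 7.5 nL into about 7.5 µL; 0% = neutral wells and 100% = wells with inactivated enzyme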
# Target sequence (P55789 whole entry, looked up): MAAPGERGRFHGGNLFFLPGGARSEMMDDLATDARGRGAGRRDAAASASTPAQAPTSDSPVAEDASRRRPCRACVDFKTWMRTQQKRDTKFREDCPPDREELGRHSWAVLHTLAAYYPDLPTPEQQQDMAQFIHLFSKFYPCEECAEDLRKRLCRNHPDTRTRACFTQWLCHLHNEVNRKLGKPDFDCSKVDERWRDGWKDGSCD
# Beta apoptosis – inhibitors of cytokine-induced beta cell apoptosis, primary screen, luminescence; 300,000 tested, 0.8% active; INS-1E cytokine-induced death, ATP luminescence, 48 h; percent of positive-control rescue, neutral wells zero; protection from apoptosis, % (test concentration not listed); AID 435005, 2010;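 active means all replicates at 75% or more, or half of them and the mean; inconclusive means half reach 75% but not the mean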;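 further: 0% = cytokine-treated negative control wells and 100% = positive control rescue; higher means more ATP so stronger rescue from cytokine killing; wells of about 40 µL received 100 nL stock; the first replicate is given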
# B2AR ag – beta2AR agonists driving receptor internalization, primary screen, cell-based, FAP fluorogen, flow cytometry. Am2.2-beta2AR cells; reference of the scale not given here. AID 504454, 2011. response, % (concentration not given with the values). Beta-2 adrenergic receptor (Homo sapiens), P07550. 340,000 tested, 0.43% active;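 active means response above a set limit, near 3 SD of response in nonfluorescent compounds, cut at about 42% in these data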;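 further: stock transfer was 100 nL into about 11 µL; a reference agonist was the positive control; negative values mostly stem from fluorescent compounds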
# Target sequence (P07550 whole entry, looked up): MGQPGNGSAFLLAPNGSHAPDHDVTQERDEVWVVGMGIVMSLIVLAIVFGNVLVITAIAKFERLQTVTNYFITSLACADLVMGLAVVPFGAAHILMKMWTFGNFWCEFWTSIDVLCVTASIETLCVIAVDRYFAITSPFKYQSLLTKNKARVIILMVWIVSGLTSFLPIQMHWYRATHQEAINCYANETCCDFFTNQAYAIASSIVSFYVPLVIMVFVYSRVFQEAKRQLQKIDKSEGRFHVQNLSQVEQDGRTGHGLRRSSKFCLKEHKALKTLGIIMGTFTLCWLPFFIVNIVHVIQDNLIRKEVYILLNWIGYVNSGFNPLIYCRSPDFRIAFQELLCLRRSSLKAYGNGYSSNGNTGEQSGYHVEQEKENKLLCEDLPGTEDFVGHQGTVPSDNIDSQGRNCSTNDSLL
# Calb FLC – C. albicans growth inhibition with fluconazole, primary screen, CaCi-2 strain, Alamar Blue fluorescence | C. albicans CaCi-2 (fluconazole-resistant clinical isolate) + fluconazole, 48 h | 300,000 tested, 0.57% active | growth inhibition, % (no concentration beside the values) | AID 1979, 2009;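 active means most replicates above 75%; inconclusive means exactly half above 75%; inactive means most below 75%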;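 further: all wells also contain fluconazole at 8 µg/ml as a sub-toxic cotreatment; 0% = median of DMSO wells and 100% = median of geldanamycin control wells; wells of about 8 µL received 7.5 nL stock; the first replicate is given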
# LANA-H2A inh – blockers of LANA interaction with H2A/H2B – biochemical, FP readout, HTS, primary screen; Protein LANA1 (Human herpesvirus 8 type P (isolate GK18)), Q9QR71; cell-free LANA-H2A/H2B peptide, fluorescence polarization; inhibition, % (no concentration beside the values); 320,000 tested, 0.6% active; AID 2629, 2010; in the data active means inhibition mostly above about 10%, no sharp cut-off; inactive means mostly below about 6.7%;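 further: stock transfer was 7.5 nL into about 10 µL; 0% = median of vehicle wells and 100% = median of positive control wells; one replicate is shown; the record names a cut of 25% in any replicate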
# Bfl-1 A1 inh – caspase 3/7 activation in MEF A1-2A-BIM cells, primary screen, A1 inhibitor project, cell-based, luminescence, HTS. 330,000 tested, 0.066% active. Caspase-Glo 3/7 luminescence, 3 h; percent of clofoctol response, vehicle zero. AID 2462, 2010. caspase activation, % (test concentration not listed);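 active means over half of replicate activation scores above 10%, or exactly half above 10 with the replicate mean above 10; inconclusive means replicate mean below 10 yet half the replicates above 10; inactive means over half of replicates below 10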;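 further: wells of about 30 µL received 50 nL stock; many hits fall short of the cut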
# T cruzi repl – inhibitors of intracellular T. cruzi growth, primary screen, luminescence, NIH3T3 host cells; T. cruzi beta-gal in NIH3T3, 90 h; 300,000 tested, 1.4% active; AID 1885, 2009; inhibition, % (concentration not given with the values);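 active means mean inhibition across valid replicates above about 55%, limit read from the data; inconclusive means mean below that limit but half or more replicates reach it; inactive means mean below it, under half of replicates reach it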;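 further: signal also drops with host cell toxicity which is not excluded here; 0% = plate median of DMSO wells and 100% = zero luminescence signal; higher percent means less beta-gal luminescence so fewer parasites; stock transfer was 50 nL into about 50 µL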
# Ecoli rRNA inh – reduced GFP signal of wild-type E. coli, primary screen, bacterial rRNA inhibitor project, GFP/RFP fluorescence, OD600, single point. GFP signal change (wild-type ribosome), % (concentration not given with the values). AID 720706, 2013. E. coli WT GFP vs humanized-ribosome RFP mutants, 24 h; hits give low values; DMSO median 0, no signal -100. 350,000 tested, 1.6% active;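 active means significant combined selectivity score with lowered wild-type GFP, culture density cut under 30%, mutant RFP and density less affected; inactive means any of these conditions unmet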; further: one replicate is shown; some compounds called inactive have numbers as strong as hits
# Ecoli rRNA inh OD600 – second read-out of Ecoli rRNA inh, no call of its own (marks repeat the call); OD600 change, %; measured here: OD600 growth;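 optical density of the mix in the first replicate; 0 = DMSO median and -100 = no signal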
# Ecoli rRNA inh RFP – further read-out of Ecoli rRNA inh, marked with its call; RFP signal change, %; measured here: RFP humanized mutant strains;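 first replicate; 0 = DMSO median and -100 = no signal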
# * hit, by the source's call; ? = inconclusive; . = no result given. A portion of the library, so the mix of outcomes need not match the whole.
No.	Compound	ALR H2O2 inh	Beta apoptosis	B2AR ag	Calb FLC	LANA-H2A inh
1	CCc1ccc(OCCCOc2ccc(C=O)cc2)cc1	-6.6	-1.1	1.0	5.6	-10.1
2	c1ccc(CCNc2nc3ccccc3s2)cc1	-3.7	1.3	15.0	-6.0	1.8
3	CCOc1ccc(C(=O)OCn2nnc3ccccc3c2=O)cc1OC	-0.3	-1.4	-3.6	8.8	-0.9
4	Cc1ccccc1NC(=O)Cc1nc(COC(=O)Cc2ccccc2F)cs1	-1.0	-4.2	-3.8	.	1.4
5	COc1ccc(S(=O)(=O)N2CCC(C(=O)NC3CC3)CC2)cc1C	-5.3	-1.6	-1.9	-2.5	3.0
6	COc1ccc(-c2c(C)n([O-])c3c([n+]2=O)CCC3)cc1OC	.	-1.8	-0.1	5.2	-0.5
7	CCOc1ccc(CCNC(=O)c2nnc(CS(=O)(=O)c3ccccc3)o2)cc1OCC	.	0.3	10.0	3.8	-5.5
8	O=C(CSc1nnc(-c2cccnc2)s1)Nc1ccc(C(=O)O)cc1	-7.3	7.0	-0.8	8.7	5.4
9	O=C(NCC(=O)N1CCOCC1)OCc1ccccc1	-2.7	-6.4	8.9	18.7	1.1
10	CSCCC(NC(=O)c1ccco1)C(=O)NCC(c1ccccc1)N(C)C (stereo not drawn)	-1.6	-2.7	1.1	.	-16.3

No.	Bfl-1 A1 inh	T cruzi repl	Ecoli rRNA inh	Ecoli rRNA inh OD600	Ecoli rRNA inh RFP
1	0.3	12.4	-8.7	-16.6	-19.2
2	-0.1	8.5	-13.6	-18.3	-6.8
3	0.0	-7.9	3.5	-0.6	-6.7
4	-0.4	.	-0.5	-3.6	3.5
5	-0.1	-6.5	5.2	9.8	-0.8
6	0.4	-5.8	.	.	.
7	0.1	-1.5	2.3	9.0	-0.3
8	1.8	-6.3	.	.	.
9	-1.1	-5.5	12.0	7.3	1.8
10	0.9	.	7.8	6.1	-4.0

# (next part)
No.	Compound	ALR H2O2 inh	Beta apoptosis	B2AR ag	Calb FLC	LANA-H2A inh
11	CC(NC(=O)/C=C/c1ccco1)c1nc2ccccc2n1Cc1cccc(Cl)c1 (stereo not drawn)	4.3	-2.7	4.9	-2.6	-7.2
12	CCOc1ccc(NC(=O)C(=O)N/N=C\c2ccc(CNS(=O)(=O)c3ccccc3)o2)cc1	0.0	3.0	-3.5	-0.6	3.0
13	Cc1ccc(-c2nc(N)s[n+]2-c2ccccc2)cc1	-8.6	-0.7	-11.7	18.4	-13.3
14	CCOCCCNC(=O)c1[nH]c(C)c(C(C)=O)c1C	-5.0	.	0.4	-3.2	2.6
15	CN(C)CCN(Cc1ccco1)S(=O)(=O)c1ccc(-c2ccc(=O)[nH]n2)s1	-3.2	6.2	1.6	2.9	4.3
16	Cc1cc(C)n(-c2c(C)[nH]c3ccccc23)n1	3.0	4.4	3.1	-5.5	0.5
17	Cc1nc2c(cc1C(=O)N/N=C/c1ccc([N+](=O)[O-])cc1)c(=O)n(C)c(=O)n2C	.	-11.0	-5.9	-7.4	-0.4
18	N#Cc1c(N)nc2c(c1-c1ccncc1)CCCCCC2	-6.3	-0.5	5.2	1.7	-0.4
19	CC(C)[C@H](NC(=O)c1ccccc1F)C(=O)Nc1nc2c(s1)CCCC2	.	-0.7	7.8	-4.3	2.7
20	COc1cc(-c2nnc(SCC(=O)c3ccc(C)cc3)o2)cc(OC)c1OC	-0.4	5.9	-15.6	-18.1	-0.5

No.	Bfl-1 A1 inh	T cruzi repl	Ecoli rRNA inh	Ecoli rRNA inh OD600	Ecoli rRNA inh RFP
11	-0.9	38.4	14.1	9.5	8.6
12	-0.4	10.9	12.5	4.1	-1.7
13	0.5	4.3	-16.3	-7.3	4.4
14	0.2	-6.6	.	.	.
15	1.3	-0.5	2.0	4.6	-2.9
16	-0.2	-5.3	5.6	5.3	-1.2
17	0.6	-8.4	.	.	.
18	0.3	-3.8	.	.	.
19	0.7	-6.4	6.2	4.4	0.0
20	0.2	2.3	-3.0	-2.5	-1.9

# (listing goes on)
No.	Compound	ALR H2O2 inh	Beta apoptosis	B2AR ag	Calb FLC	LANA-H2A inh
21	COC(=O)c1c(-c2c(Cl)cccc2Cl)noc1C(=O)NNC(=O)N(C)C	17.1	-3.6	-5.0	1.1	3.8
22	Cc1cc(N/N=C/c2ccc([N+](=O)[O-])o2)nc2ccccc12	-41.4	-0.7	16.6	-1.7	2.1
23	CCN(CC)S(=O)(=O)c1ccc(N2CCOCC2)c(NS(=O)(=O)c2cccs2)c1	10.3	-2.8	-5.1	.	-1.6
24	Cc1ccc(S(=O)(=O)NC(=O)NCCc2ccccc2)cc1	-9.5	-5.6	-5.0	-2.8	-1.2
25	COc1cccc(C2CC(c3ccccc3Cl)n3nc(N)nc3N2)c1 (stereo not drawn)	.	1.3	-3.7	3.8	-3.7
26	CC(C)(C)OC(=O)NCCc1nnc(SCC(=O)Nc2ccc(Br)cc2)o1	.	-6.2	1.7	5.0	-1.9
27	O=C(Nc1c(-c2ccccc2)nc2ccc(Cl)cn12)c1cccs1	4.1	-5.5	-6.6	9.2	1.1
28	CC(C)N(Cc1ccccc1)C(=S)NCCN1CCOCC1	-11.2	-5.3	29.6	-2.8	1.4
29	COc1ccc(OC)c(C(=O)c2coc3ccc(OCC(=O)O)cc23)c1	.	-3.4	0.3	?	-4.7
30	Cc1[nH]n(-c2ccccc2)c(=O)c1C=Nc1ccc(S(N)(=O)=O)cc1	3.1	-8.4	-0.4	-1.0	-0.4

No.	Bfl-1 A1 inh	T cruzi repl	Ecoli rRNA inh	Ecoli rRNA inh OD600	Ecoli rRNA inh RFP
21	1.2	-1.4	1.5	3.6	-2.1
22	-0.7	34.7	-18.9	-36.0	5.7
23	-0.3	.	9.8	-2.3	0.6
24	0.7	-15.0	-0.8	0.2	-1.6
25	0.1	6.4	.	.	.
26	-0.6	10.3	3.8	0.8	-1.1
27	0.3	-4.6	.	.	.
28	-1.8	1.9	11.6	-2.1	-2.2
29	-3.3	-1.6	.	.	.
30	-0.2	-9.4	1.5	1.2	-2.5

# Three entries out of the list above, sorted by the number in Ecoli rRNA inh, highest first.
nr	SMILES	ALR H2O2 inh	B2AR ag	LANA-H2A inh	Bfl-1 A1 inh	Ecoli rRNA inh	Ecoli rRNA inh OD600	Ecoli rRNA inh RFP
26	CC(C)(C)OC(=O)NCCc1nnc(SCC(=O)Nc2ccc(Br)cc2)o1	.	1.7	-1.9	-0.6	3.8	0.8	-1.1
21	COC(=O)c1c(-c2c(Cl)cccc2Cl)noc1C(=O)NNC(=O)N(C)C	17.1	-5.0	3.8	1.2	1.5	3.6	-2.1
24	Cc1ccc(S(=O)(=O)NC(=O)NCCc2ccccc2)cc1	-9.5	-5.0	-1.2	0.7	-0.8	0.2	-1.6

# Among those listed so far, 10 contain four or more nitrogen atoms.
No.	Compound	ALR H2O2 inh	Beta apoptosis	B2AR ag	Calb FLC	LANA-H2A inh
8	O=C(CSc1nnc(-c2cccnc2)s1)Nc1ccc(C(=O)O)cc1	-7.3	7.0	-0.8	8.7	5.4
12	CCOc1ccc(NC(=O)C(=O)N/N=C\c2ccc(CNS(=O)(=O)c3ccccc3)o2)cc1	0.0	3.0	-3.5	-0.6	3.0
15	CN(C)CCN(Cc1ccco1)S(=O)(=O)c1ccc(-c2ccc(=O)[nH]n2)s1	-3.2	6.2	1.6	2.9	4.3
17	Cc1nc2c(cc1C(=O)N/N=C/c1ccc([N+](=O)[O-])cc1)c(=O)n(C)c(=O)n2C	.	-11.0	-5.9	-7.4	-0.4
18	N#Cc1c(N)nc2c(c1-c1ccncc1)CCCCCC2	-6.3	-0.5	5.2	1.7	-0.4
21	COC(=O)c1c(-c2c(Cl)cccc2Cl)noc1C(=O)NNC(=O)N(C)C	17.1	-3.6	-5.0	1.1	3.8
22	Cc1cc(N/N=C/c2ccc([N+](=O)[O-])o2)nc2ccccc12	-41.4	-0.7	16.6	-1.7	2.1
25	COc1cccc(C2CC(c3ccccc3Cl)n3nc(N)nc3N2)c1 (stereo not drawn)	.	1.3	-3.7	3.8	-3.7
26	CC(C)(C)OC(=O)NCCc1nnc(SCC(=O)Nc2ccc(Br)cc2)o1	.	-6.2	1.7	5.0	-1.9
30	Cc1[nH]n(-c2ccccc2)c(=O)c1C=Nc1ccc(S(N)(=O)=O)cc1	3.1	-8.4	-0.4	-1.0	-0.4

No.	Bfl-1 A1 inh	T cruzi repl	Ecoli rRNA inh	Ecoli rRNA inh OD600	Ecoli rRNA inh RFP
8	1.8	-6.3	.	.	.
12	-0.4	10.9	12.5	4.1	-1.7
15	1.3	-0.5	2.0	4.6	-2.9
17	0.6	-8.4	.	.	.
18	0.3	-3.8	.	.	.
21	1.2	-1.4	1.5	3.6	-2.1
22	-0.7	34.7	-18.9	-36.0	5.7
25	0.1	6.4	.	.	.
26	-0.6	10.3	3.8	0.8	-1.1
30	-0.2	-9.4	1.5	1.2	-2.5

# Source: PubChem BioAssay (several laboratories)
